# Rce1 inhib = yeast Rce1p protease inhibitors, primary screen, biochemical, fluorescence, cell-free homogeneous. CAAX prenyl protease 2 (Saccharomyces cerevisiae (strain ATCC 204508 / S288c)), Q03530. yeast membranes, quenched prenylated peptide cleavage fluorescence. calls only. 290,000 compounds, 0.27% hits. AID 2563, 2010;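 active = fall in fluorescence gain of 50% or more versus controls, with final raw signal at or below 3038400; inconclusive = same 50% fall but final raw signal above 3038400; inactive = fall in fluorescence gain under 50%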;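 note: plate controls were neutral control wells for no effect and wells lacking membranes for full effect; tested at 10 µM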
# Target sequence (Q03530 whole entry, looked up): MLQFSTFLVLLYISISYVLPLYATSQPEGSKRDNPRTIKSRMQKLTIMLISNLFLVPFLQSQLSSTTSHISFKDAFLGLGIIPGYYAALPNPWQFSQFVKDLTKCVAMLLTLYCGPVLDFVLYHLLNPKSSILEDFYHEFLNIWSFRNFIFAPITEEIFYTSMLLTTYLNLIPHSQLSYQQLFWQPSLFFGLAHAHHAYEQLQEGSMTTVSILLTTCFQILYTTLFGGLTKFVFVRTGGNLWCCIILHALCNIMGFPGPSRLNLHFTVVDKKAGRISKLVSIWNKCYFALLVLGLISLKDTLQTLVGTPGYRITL
# Yeast UUG start = modulators of yeast start codon fidelity, primary screen, whole organism, S. cerevisiae, single point, plate reader | 350,000 compounds, 0.13% hits | activity score, % at 18.7 µM | S. cerevisiae UUG-firefly luciferase reporter, luminescence/redox ratio;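 active = replicate mean at a twofold rise or more, about +100% in these data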;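 note: firefly luciferase made from a UUG start codon reports start codon fidelity; reporter light over untreated wells divided by growth signal over untreated wells; some hits fall short of that in this replicate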
# eIF4H FP inh = human eIF4H binding inhibitors, primary screen, translation initiation inhibitor project, biochemical, uHTS, fluorescence polarization; 290,000 compounds, 0.94% hits; eIF4H fluorescence polarization binding assay; inhibition, % at 35 µM; Eukaryotic translation initiation factor 4H (Homo sapiens), Q15056;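 active = 50% or more with normal probe brightness, or confirmed in later tests; inconclusive = above 50% with abnormal brightness, or retests that disagree; inactive = below 50% or failed in later tests; about a fifth of its hits are not listed in these tables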;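 note: calls also rest on retests at 20 µM and on dose response follow-up; 0% = protein and probe with vehicle and 100% = probe without protein; strong numbers were not always called active; many hits fall short of the cut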
# CSC inhib = cancer stem cell viability inhibitors, primary screen, luminescence. cancer stem cell-like cells viability. inhibition, % at 7.5 µM. 300,000 compounds, 1.1% hits;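 active = mean at 75% or more and at least half the replicates too; inconclusive = mean and replicates disagree; tested in HMLE shEcad cells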;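 note: 0% = median of negative and 100% = median of positive control wells; the first replicate is given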
# MT1-MMP act inh = blockers of MT1-MMP proenzyme processing, primary screen, HT1080 RFP-PRO-GFP cells, GFP/RFP fluorescence. Matrix metalloproteinase-14 (Homo sapiens), P50281. GFP/RFP ratio fluorescence, overnight; percent of plate control window, DMSO zero. GFP/RFP ratio change, % at 20 µM. 360,000 compounds, 0.061% hits;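 active = GFP/RFP ratio change of at least 30% with cell ATP level not reduced by more than half and red fluorescence within 50% of control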; note: strong numbers were not always called active
#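 Assay system: HT1080 RFP-PRO-GFP cells | Dosing: 20 µM single dose, 1% DMSO | Incubation: Cells overnight before dosing, compound overnight, 37 °C, 5% CO2 | Evaluation: GFP/RFP fluorescence ratio | Control set: DMSO-only wells and HT1080 RFP-L50D-GFP cell wells as references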
# PABP polyA inh = PABP poly(A) RNA binding inhibitors, primary screen, biochemical, fluorescence polarization, uHTS; Polyadenylate-binding protein 1 (Homo sapiens), P11940; inhibition, % at 35 µM; 290,000 compounds, 1% hits; AID 2014, 2009;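 active = 50% or more with normal probe brightness, or confirmed in later tests; inconclusive = above 50% with abnormal brightness, or retests that disagree; inactive = below 50% or failed in later tests; about a fifth of its hits are not listed in these tables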;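 note: calls also rest on retests at 20 µM and on dose response follow-up; controls were probe without protein and protein plus probe with vehicle; some compounds called inactive have numbers as strong as hits; many hits fall short of the cut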
# Env fusion inh = inhibitors of HIV-1 Env-driven cell-cell fusion, primary screen, HeLa-JRFL effector, CEM21 target cells, luciferase; 360,000 compounds, 1.1% hits; inhibition, % at 12.3 µM;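 active = mean replicate inhibition score of at least 50 and every replicate individually at or above 50; inconclusive = only one of the two criteria met; inactive = mean below 50 and not all replicates reaching 50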;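 note: 0% = plate neutral controls and 100% = maraviroc near 300 nM; one replicate is shown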
# MT1-MMP act inh RFP = further read-out of MT1-MMP act inh, marked with its call; RFP signal change, %; measured here: RFP expression control read;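 0 = vehicle wells; hits needed this value within 50% of zero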
# Starred values were filed as active, the others as inactive; i = inactive; ? = inconclusive; . = no result given; & = joins results of further samples; [ ] = remark or other dose.
SMILES,Rce1 inhib,Yeast UUG start,eIF4H FP inh,CSC inhib,MT1-MMP act inh,MT1-MMP act inh RFP,PABP polyA inh,Env fusion inh
Cc1nc(SCC(=O)N2c3ccccc3NC(=O)CC2C)c2c(C)c(C)sc2n1 (stereo not given),.,-12,.,.,-2,-3,.,11
O=S(=O)(c1ccc(Br)s1)N1CCC(Cc2ccccc2)CC1,i,-1,0,.,-13,-2,7,19
C/C(=N/NC(=O)c1ccoc1C)c1ccc(NC(=O)c2ccncc2)cc1,i,-16,-5,-8,0,0,7,.
Cn1c(=O)c2cc(S(=O)(=O)NC(Cc3ccccc3)C(=O)NCc3ccco3)ccc2n(C)c1=O (stereo not given),i,1,1,-3,16,-1,-4,26
O=C(COc1ccc2ccc(=O)oc2c1)N1CC[C@@]2(O)CCCC[C@H]2C1,i,-11,7,2,2,1,6,.
CCCc1[nH]nc2c1C(c1ccc(OC)c(CSC3=NCCS3)c1)C(C#N)=C(N)O2 (stereo not given),i,-2,1,-9,3,8,5,-75
O=[N+]([O-])c1ccc(-c2nc(Nc3cccc(O)c3)c3ccccc3n2)cc1,i,-11,-2,94*,0,-11,-10,3
Cc1ccccc1C(=O)NNC(=O)C(C)N1C(=O)c2ccccc2C1=O (stereo not given),i,-6,-2,-13,2,3,6,.
Cc1ccccc1C(=O)c1cccn1CC(=O)NCc1cccc(Cl)c1,i,-13,4,.,-2,-2,3,-9
COc1ccc(-c2cc(C(F)F)n3ncc(C(=O)N4CCc5ccccc5C4)c3n2)cc1,.,-6,-7,-20,-13,-6,4,-41
CCOc1ccc(S(=O)(=O)Nc2ccc3c(c2)OCO3)c2cccnc12,i,6,12,-3,-12,-9,12,-79
CN(c1ccccc1)c1nc(N)c([N+](=O)[O-])c(N2CCCCC2)n1,i,.,-16,-11,-3,-7,6,-4
O=C(C1=C(O)C(=O)N(Cc2ccccc2)C1c1ccncc1)c1ccco1 (stereo not given),i,-10,10,.,9,7,8,.
CC(=O)[C@@]1(O)CCC2C3C=CC4=CC(=O)CC[C@]4(C)C3CC[C@@]21C (stereo not given in full),.,-8,.,-12,4,-5,.,-9
c1ccc(C2=Nn3c(nnc3-c3cccs3)SC2)cc1,i,.,-1,-17,1,1,6,0
O=C(NC1CCCC1)C1c2ccccc2C(=O)N1C1CCCCC1 (stereo not given),i,-8,-4,-5,-3,1,-6,2
OC(CNCCNc1ncccc1C(F)(F)F)Cn1ccc2ccccc21 (stereo not given),i,-17,-4,-4,-3,1,-1,35
CC(=O)N1CCN(S(=O)(=O)c2ccc(C)cc2)C1C(C)C (stereo not given),i,-18,1,-6,0,3,0,-23
CC(C)CCN(C)C1CCN(C(=O)Nc2c(F)cccc2F)CC1,i,-2,0,-1,0,2,10,-18
COc1ccc(-c2cc(C(F)(F)F)nc(SCC(=O)N(C)Cc3cnn(C)c3C)n2)cc1OC,i,-23,4,-2,7,2,2,18
COc1cc(-c2c(-c3cccc(C)c3)oc3ccccc23)cc(OC)c1OC,i,-10,4,29,-2,-5,-10,-13
Cc1nc2ccc(C(=O)O)cc2nc1C,i,-18,-3,-8,-1,0,0,-13
CCCCCn1c(NC2CCCCC2)nc2c1c(=O)[nH]c(=O)n2C,i,4,2,-1,-1,-3,-1,2
CN(C)S(=O)(=O)c1cccc(NC(=O)CSc2nc3ccccc3n2-c2ccccc2)c1,i,-4,-5,11,-19,-19,14,36
COC(=O)c1ccc(C2/C(=C(/O)c3ccc(OC)cc3)C(=O)C(=O)N2c2cc(C)on2)cc1 (stereo not given),i,-24,-7,-1,-9,-5,9,-12
CC(C)(C)c1cc(S(=O)(=O)CCc2ccncc2)cc(C(C)(C)C)c1F,i,-8,4,3,-41,-32,17,43
CCN(CC)c1nc2cc(C)ccc2cc1/C=C(\C#N)C(N)=O,i,.,27,-5,-20,0,4,-13
Cc1cnc(NC(=O)Cc2ccc(C)c(C)c2)s1,i,-15,-3,-13,-7,-3,6,-4
NC(=O)[C@H](Cc1cc2ccccc2s1)NC(=O)[C@@H]1CC2(CC(c3cccc(NC(=O)[C@@H]4CCC(=O)N4)c3)=NO2)CN1C(=O)/C=C/Sc1ccccc1 (stereo not given in full),i,1,6,-21,-4,0,3,-13
CCCS(=O)(=O)N1CCN(S(=O)(=O)c2ccccc2[N+](=O)[O-])CC1,i,.,3,-16,.,.,2,-1
O=C(COc1ccc([N+](=O)[O-])cc1)NCCC1=CCCCC1,i,4,6,8,3,4,-8,.
O=C(CSc1nnc(CNC(=O)c2ccco2)o1)c1ccccc1,i,-7,6,-2,-5,1,1,-23
CC(N)C12CC3CC(CC(O)(C3)C1)C2 (stereo not given),i,-19,-4,-12,4,4,-4,.
O=C(NCc1nnnn1-c1ccc(F)cc1)c1ccc([N+](=O)[O-])o1,i,.,.,-8,3,-3,.,-33
Cc1ccccc1Nc1ccc(S(=O)(=O)N2CCOCC2)cc1[N+](=O)[O-],i,.,-7,7,-1,-4,-6,16
Clc1ccc(-c2cccc3nccn23)cc1,.,-23,.,.,4,-1,.,-41
Fc1cccc(NC(=S)Nc2cccc3ccccc23)c1,i,-21,14,0,4,3,26,-16
COc1ccc(-c2nc(CSCC(=O)NCCCN3CCCC3=O)c(C)o2)cc1,i,.,-21,-13,2,4,0,6
CN1CCN(c2cc3c(cc2F)c(=O)c(C(=O)O)cn3CCF)CC1,i,.,2,4,-8,-7,-4,9
COc1ccc(S(=O)(=O)N(C)C[C@H]2OCCCC[C@H](C)Oc3ccc(NC(=O)Nc4ccc(F)cc4)cc3C(=O)N([C@H](C)CO)C[C@H]2C)cc1,.,-3&1,.,.,7,1,.,-4[16.7 µM]
O=C(C1CCN(c2ccc(N3CCOCC3)nn2)CC1)N1CCc2ccccc2C1,i,-9,-10,8,-2,-3,-2,.
Cc1c(NS(=O)(=O)c2cc(C(=O)NCc3ccco3)cc(Cl)c2Cl)c(=O)n(-c2ccccc2)n1C,i,.,.,.,2,0,.,-5
O=C1c2ccccc2C(=O)N1c1nc(-c2cccs2)cs1,i,5,3,9,5,-2,16,.
N/C(=N\OC(=O)N1c2ccccc2Sc2ccccc21)c1ccc(Br)cc1,i,.,4,1,-3,-1,12,-5
O=C(CCSc1ccccc1)Nc1ccc(S(=O)(=O)N2CCOCC2)cc1,i,-9,-8,-4,-7,-4,-5,-51
N#Cc1ccc(OCC(=O)Nc2nc(-c3ccccn3)cs2)cc1,.,-16,.,.,5,2,.,22
O=C1N(Cc2cccc(Cl)c2)C[C@@H]2C[C@@H](c3cccn3-c3cccnc3)N3CCC[C@@]123,i,-3,45,12,-6,-20,19,-12
NC(=O)COC(=O)/C=C/c1cccc(Br)c1,i,.,2,0,1,5,13,-11
COc1ccccc1-n1c(C)c2c(OC)cccc(=O)c2c1C,i,3,16,-5,-10,9,2,-54
CN1CCN(C(=O)Cn2ncc3c([nH]c4ccccc43)c2=O)CC1,i,-3,-3,-6,-5,-1,-4,11
Cc1ccc(CNC(=O)CSc2ccc(-c3ccccn3)nn2)cc1,i,.,0,-5,0,0,20,-7
CCn1nc(C)c(CN2CCC(n3nccc3NC(=O)CCCc3ccccc3)CC2)c1C,i,-15,-5,-3,1,1,5,-2
CCOc1cc(C(=O)NC)cc(Br)c1OCc1ccccc1,i,2,4,2,-6,-9,11,8
Cc1nn(C(C)(C)C)c(NC(=O)c2ccc(Cl)cc2)c1Br,i,-11,-2,-3,1,0,-3,-2
COC(=O)c1cccc(NC(=O)C2C3CCC(C3)C2C(=O)O)c1 (stereo not given),i,-8,-10,-10,5,4,8,-5
O=C(CSc1ccc(Cl)cc1)Nc1ccc(-c2nc3ccccc3[nH]2)cc1,i,0,-31,2,3,3,7,28
CC1CC(C)(C)NC(C)c2ccccc21 (stereo not given),i,-23,-5,-25,-3,8,8,.
Cc1cnc(C(=O)Nc2ccc(F)c(F)c2)cn1,i,-25,-7,-1,7,1,6,.
COC(=O)C1(C)NC(c2ccc(F)cc2)C2C(=O)N(c3ccccc3)C(=O)C21 (stereo not given),i,-6,-5,6,2,1,11,-3
Cc1ccccc1S(=O)(=O)NC(=O)C1(C)CCN1C(=O)Cc1ccc(C(C)(C)C)cc1 (stereo not given),.,4,.,.,-11,-1,.,3
# Next section.
SMILES,Rce1 inhib,Yeast UUG start,eIF4H FP inh,CSC inhib,MT1-MMP act inh,MT1-MMP act inh RFP,PABP polyA inh,Env fusion inh
CCOC(=O)C(NC(C)=O)C(OC(C)=O)c1cccc([N+](=O)[O-])c1 (stereo not given),i,-14,-14,19,0,3,7,-11
C=CCNc1ncnc2c1cnn2-c1ccc(Cl)cc1,i,-5,-14,3,1,2,-9,-231
CC(=O)c1ccccc1OCC(O)CNC1CCCC1 (stereo not given),i,.,.,-16,-3,1,.,4
CCN(C(=O)COC(=O)CNC(=O)c1cccs1)c1c(N)n(Cc2ccccc2)c(=O)[nH]c1=O,.,-24,.,.,-2,4,.,8
CN1CCN(C(=O)/C(=C/c2cccc([N+](=O)[O-])c2)NC(=O)c2ccccc2)CC1,i,-12,2,-20,-1,2,-8,15
O=C(CCN1C(=O)/C(=C\c2ccco2)SC1=S)Nc1ccc(C(=O)O)c(O)c1,i,-14,.,0,13,21,.,-7
Cn1nccc1C(=O)Nc1ccc(OC(=O)c2ccnn2C)cc1,i,-24,11,-12,-1,0,-4,2
CCOC(=O)c1c(C)n(-c2ccc(C)cc2)c2ccc(OCC(O)CN3CCN(C)CC3)cc12 (stereo not given),.,.,0,.,1,-4,-3,26
O=C(Oc1ccc2c(c1)O/C(=C\c1ccncc1)C2=O)c1cccs1,i,-14,?,-9,-14,-6,?,9
O=C(CCNC(=O)c1ccc(Br)cc1)Nc1ccccc1N1CCOCC1,i,.,.,-12,-11,-5,.,.
Cn1cccc1/C=N/N1CCN(Cc2ccccc2Cl)CC1,i,0,8,-5,-1,-3,-3,5
Cc1cccc(N2CCN(C(=O)CCn3c(=S)[nH]c4cc5c(cc4c3=O)OCO5)CC2C)c1 (stereo not given),i,-10,-6,.,-5,-2,-6,18

# Three entries already listed, ordered by SMILES length, ascending:
SMILES,Rce1 inhib,Yeast UUG start,eIF4H FP inh,CSC inhib,MT1-MMP act inh,MT1-MMP act inh RFP,PABP polyA inh,Env fusion inh
C=CCNc1ncnc2c1cnn2-c1ccc(Cl)cc1,i,-5,-14,3,1,2,-9,-231
CCOC(=O)C(NC(C)=O)C(OC(C)=O)c1cccc([N+](=O)[O-])c1 (stereo not given),i,-14,-14,19,0,3,7,-11
O=C(CCN1C(=O)/C(=C\c2ccco2)SC1=S)Nc1ccc(C(=O)O)c(O)c1,i,-14,.,0,13,21,.,-7

# The list continues.
SMILES,Rce1 inhib,Yeast UUG start,eIF4H FP inh,CSC inhib,MT1-MMP act inh,MT1-MMP act inh RFP,PABP polyA inh,Env fusion inh
COc1ccccc1NC(=O)COC(=O)c1cc(C)oc1C,.,-10,.,-2,-2,1,.,-10
CCN1CCN(CC(=O)N2N=C(c3cccs3)CC2c2ccc(F)cc2)C(=O)C1=O (stereo not given),i,.,-3,-19,1,3,-2,8
CCc1ccc(NCc2cc3c(C)nn(-c4ccccc4)c3[nH]c2=O)cc1,i,-19,0,10,2,5,14,.
COc1ccc(CNS(=O)(=O)c2c(C(=O)N3CCCCC3)c(C)n(C)c2C)cc1,i,2,1,-12,-1,2,4,-1

# Screening data as filed in PubChem.
